# Screening data: PubChem BioAssay, Center for Chemical Genomics, University of Michigan
# HIV TAR-Tat: HIV-1 TAR-Tat binding disruption; HIV-1 TAR RNA, Tat peptide displacement FRET; stronger effect = higher value; z-score (test concentration not listed); actives 0.6% (n = 100,000);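 note: score is relative to mean and SD of negative controls; some compounds called inactive have numbers as strong as hits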
# CDC25B-CDK2 inh: human CDC25B-CDK2/CyclinA binding inhibition; P30305+P24941; AID 1259370; HTRF CDC25B-CDK2/CyclinA binding, anti-His/anti-Flag; stronger effect = higher value; actives 0.72% (n = 94,000); z-score (no concentration beside the values);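 note: score is relative to mean and SD of negative controls; strong numbers were not always called active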
# Numbers without * were called inactive; · = no result given.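 Rule for the calls: active = z-score from 3 up in half or more of its runs; inactive = the rest.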 The order is random (roughly 0.9% active in at least one column).
SMILES,HIV TAR-Tat,CDC25B-CDK2 inh
CN(CCNC(=O)c1c2c(nc3ccccc13)C(=O)N(C1CCCCC1)C2)Cc1ccccc1,0.62,·
Cc1cc(C)c2nc(N(CCN(C)C)C(=O)C3COc4ccccc4O3)sc2c1 (configuration not stated),0.73,·
COC(=O)c1sc(=S)n(C)c1C,1.3,-1.7
Cc1cc(NS(=O)(=O)N(C)C)no1,1.8,-1.7
COC(=O)C1OC=C(C)C2CN3CCC4c5ccccc5NC4CC3CC21 (configuration not stated),-1.4,-1.2
COc1cc(-c2ccc3c(c2)OCO3)cc(=O)c2c(C)oc(C)c12,1.8,-1
CCCC(=O)Nc1sc2c(c1C(=O)OC)CCC2,0.24,-1
O=C1C2CC=CCC2C(=O)N1c1cccc(N2C(=O)C3CC=CCC3C2=O)n1 (configuration not stated),·,-3.3
Brc1ccc2[nH]c3ccccc3c2c1,·,-0.93
CCOC(=O)c1oc2c(c1C)-c1nn(Cc3ccc(Cl)cc3)cc1CC2,0.74,1.7
COC(=O)c1cccc(N2COc3ccc4c5c(c(=O)oc4c3C2)CCC5)c1,·,-1.2
O=C(Nc1cccc(F)c1)N1CCC(c2nc3ccccc3[nH]2)CC1,-0.6,-1.9
Cc1nc(-c2ccc(S(=O)(=O)NCc3ccc4c(c3)OCO4)cc2)co1,0.25,·
CC1=C(c2cccc(Cl)c2)S(=O)(=O)NC1=NC1CCC(C)CC1 (configuration not stated),1.2,-2
CCC(=O)Nc1nonc1-c1nc2ccccc2[nH]1,1.1,-1.6
Cc1cc(C)n(-c2nc3ccccc3nc2Nc2ccc(F)cc2F)n1,-0.36,-0.64
CCO/C(C)=C1/SC(=S)NC1=O,·,-1.6
Cc1nn(-c2ccccc2)c2nc(-c3ccco3)cc(C(F)(F)F)c12,1.2,-0.46
CCCCSC1=C(C#N)C(=O)NC(c2ccc(O)c(OC)c2)S1 (configuration not stated),1.3,0.21
Cc1cc2oc(-c3ccccc3C(=O)O)cc(=O)c2cc1Cl,0.04,-0.71
Fc1ccc(-n2ncc3c(NCCCn4ccnc4)ncnc32)cc1,2.6,·
COCCNS(=O)(=O)c1c(C)nc2sccn2c1=O,0.88,·
Cc1c(C(=O)N2CCCCC2)c(S(=O)(=O)N2CCCc3ccccc32)c(C)n1C,-1.9,·
Cn1c(=O)c2c(SCC(=O)N3CCc4ccccc43)nc(-c3ccccc3Cl)nc2n(C)c1=O,0.64,·
Cc1cccc(C)c1Nc1c(-c2ccccc2O)nc2cnccn12,0.73,0.1
Cc1cc(N/N=C/c2ccncc2)c([N+](=O)[O-])cc1[N+](=O)[O-],·,-1.3
CCOC(=O)c1ccc2c(c1)C1C=CCC1C(c1ccccc1)N2 (configuration not stated),-3,-0.46
O=C(Nc1ccc(C(=O)N2CCC(N3CCCCC3)CC2)cc1)C1=CSCCO1,1.3,·
O=C(Nc1nnc2n1CCCS2)c1cccc(Br)c1,0.9,·
CCOCCSc1ncc(CO)n1Cc1ccc(C)cc1,1.4,·
Cc1[nH][nH]c(=O)c1C1=NCCCCC1,0.34,-0.59
COc1ccc(-c2c(C(F)(F)F)oc3cc(OC(=O)C(C)C)ccc3c2=O)cc1OC,1.4,-1.7
O=C(NC1CCCCC1)c1ccc2c(c1)sc1nc(-c3ccccc3)cn12,2.4,·
Cc1ccc(Cn2c(SCc3cc(=O)n4cc(Cl)ccc4n3)nc3ccsc3c2=O)cc1,·,-2.1
O=c1c(-c2ccccc2)coc2cc(OCc3ccccc3F)ccc12,2.1,-0.15
CCN1CCN(CCNS(=O)(=O)c2cc(Br)cc3c2N(C(=O)C2CC2)CC3)CC1,-0.29,-1.3
Cc1cc(C)c(NC(=O)CS(=O)(=O)Cc2c(F)cccc2Cl)c(C)c1,·,0.13
CSc1nc2c(c(=O)[nH]1)C(c1ccc(OC(C)C)cc1)CC(=O)N2 (configuration not stated),0.62,-1.5
CCCOc1ccc(C2C=C(C(=O)O)Nc3ncnn32)cc1 (configuration not stated),0.28,2.4
NC(=O)C1(N2CCCCC2)CCN(C2CC(=O)N(c3ccc(C(F)(F)F)cc3)C2=O)CC1 (configuration not stated),·,0.05
COc1ccccc1NC(=O)c1sc(=S)n(-c2ccccc2)c1N,0,-3.4
CCn1nccc1C1CCCN1S(=O)(=O)c1cccc(Cl)c1 (configuration not stated),1.3,-2.5
CCOc1ccc(N(CC)c2nc(-c3cc(OC)ccc3OC)no2)cc1,-0.17,·
Cc1nc(C)c(-c2ccn(S(=O)(=O)c3cc(C(F)(F)F)cc(C(F)(F)F)c3)n2)o1,·,-2.1
CCN1CCN(c2nnc(Cc3ccncc3)c3ccccc23)CC1,0.93,-1.4
CCOC(=O)c1noc2nc(C)nc(Nc3ccc(F)c(Cl)c3)c12,0.53,·
Cc1ccc(S(=O)(=O)N/N=C/c2ccc3c(c2)OCO3)cc1,·,-0.79
COc1ccc(/C=C2\CC/C(=C\c3ccc(OC)c(OC)c3)C2=O)cc1OC,·,-1.4
CN(C)CCCN(C(=O)c1ccc2c(c1)OCCO2)c1nc2ccc(Cl)cc2s1,1.9,·
Cc1cc(C)n(-c2cc(N3CCN(c4ccc(F)cc4)CC3)ncn2)n1,-2.8,·
CC(C)(C)c1ccc(C(=O)OCc2cc(=O)n3ccsc3n2)cc1,-0.14,·
O=C(O)c1c2c(nc3ccccc13)CSc1ccc(Cl)cc1-2,·,0.48
CC1CSc2ccc(S(=O)(=O)Nc3cccc4c3CCCC4)cc2NC1=O (configuration not stated),2.6,·
O=C(O)CC1(CC(=O)NCc2ccccn2)CCCCC1,·,-1.1
Cc1cc(-c2ccc(C(C)C)c(S(=O)(=O)NCc3ccc(N(C)C)cc3)c2)on1,0.85,·
O=C(c1ccco1)N1CCN(C(=O)c2ccc(CS(=O)c3ccc(Cl)cc3)o2)CC1 (configuration not stated),1.2,·
Cn1c(=O)c2c(ncn2Cc2cccc3ccccc23)n(C)c1=O,-0.11,-0.35
NC(=O)C(=O)O,·,-2.2
Cc1ccc(-c2nc3cccnc3n2CCCNS(=O)(=O)Cc2ccccc2)cc1,-1.8,·
O=C(Nc1ccc(Cl)cc1)c1cc2c(s1)-c1ccccc1OC2,0.27,-0.72
# Next section:
SMILES,HIV TAR-Tat,CDC25B-CDK2 inh
Cc1nc(C)c(C(=O)Nc2nc(-c3ccc(Br)cc3)c(C)s2)s1,0.59,-2.8
CC1CCc2c(sc3ncnc(N4CCOCC4)c23)C1 (configuration not stated),·,-2.6
CC1=C(c2ccc(C(C)C)cc2)S(=O)(=O)N=C1N1CCC(C(=O)N2CCOCC2)CC1,0.16,·
CCn1nc(C)c(CCNC(=O)Nc2ccc(F)c(Cl)c2)c1C,0.23,·
O=C(NCCc1csc2c1CCCC2)Nc1ccccc1Br,0.84,·
Cc1nn(C(C)(C)C)c(OC(=O)Cc2ccc(F)cc2)c1S(=O)(=O)c1ccccc1,·,-2.9
CCc1nnc(SCC(=O)Nc2cc(C)cc(C)c2)c2cc3oc(C)cc3n12,1.7,·
CC1N=C2c3ccccc3N=C(SC(C)C(=O)Nc3ccccc3Cl)N2C1=O (configuration not stated),-1.3,·
Cc1nc2cccnc2n1C1CCN(S(=O)(=O)c2ccc3c(c2)oc(=O)n3C)CC1,0.8,·
c1ccc(OCc2nnc3sc(-c4nn5c(COc6ccccc6)nnc5s4)nn23)cc1,-0.83,0.3
CC(C)CNc1cc(N2CCCCC2)c2c3c(onc13)-c1ccccc1C2=O,0.37,0.16
COc1ccc(C(=O)CCC(=O)NC2=NCCS2)cc1,1,·
COc1ccc(-n2nc(C(=O)Nc3nc4ccc(OC)cc4s3)c3ccccc3c2=O)c(OC)c1,0.5,·
O=C(c1cc(=O)c2ccccc2o1)N(Cc1ccccc1Cl)C1CCS(=O)(=O)C1 (configuration not stated),0.88,-2.4
C#CCn1c(C2CC(=O)N(CC(C)C)C2)nc2ccccc21 (configuration not stated),-0.81,-1
Cc1cc(C)n(-c2nnc(Nc3ccccc3)c3ccccc23)n1,-0.39,-0.57
COc1ccc(Nc2c(-c3ccc4c(c3)OCC(=O)N4)c(=O)c2=O)cc1OC,2,·
Cc1cc2nc(NC3=NCN(Cc4ccc5c(c4)OCO5)CN3)nc(C)c2cc1C,-0.22,2.5
O=C(NCC1CCCO1)c1sc(=S)n2c1[nH]c(=O)c1ccc(C(=O)N3CCCCC3)cc12 (configuration not stated),3.8,·
CCSc1nc2c(c(=O)n1Cc1ccco1)C1(CCCCC1)Cc1ccccc1-2,·,-0.93

# A second format for some results above.
canonical_smiles | HIV TAR-Tat | CDC25B-CDK2 inh
Cc1nc(C)c(C(=O)Nc2nc(-c3ccc(Br)cc3)c(C)s2)s1 | 0.59 | -2.8
COc1ccc(C(=O)CCC(=O)NC2=NCCS2)cc1 | 1 | ·
CCc1nnc(SCC(=O)Nc2cc(C)cc(C)c2)c2cc3oc(C)cc3n12 | 1.7 | ·

# Returning to the listing, starting seven compounds before the break.
SMILES,HIV TAR-Tat,CDC25B-CDK2 inh
O=C(c1cc(=O)c2ccccc2o1)N(Cc1ccccc1Cl)C1CCS(=O)(=O)C1 (configuration not stated),0.88,-2.4
C#CCn1c(C2CC(=O)N(CC(C)C)C2)nc2ccccc21 (configuration not stated),-0.81,-1
Cc1cc(C)n(-c2nnc(Nc3ccccc3)c3ccccc23)n1,-0.39,-0.57
COc1ccc(Nc2c(-c3ccc4c(c3)OCC(=O)N4)c(=O)c2=O)cc1OC,2,·
Cc1cc2nc(NC3=NCN(Cc4ccc5c(c4)OCO5)CN3)nc(C)c2cc1C,-0.22,2.5
O=C(NCC1CCCO1)c1sc(=S)n2c1[nH]c(=O)c1ccc(C(=O)N3CCCCC3)cc12 (configuration not stated),3.8,·
CCSc1nc2c(c(=O)n1Cc1ccco1)C1(CCCCC1)Cc1ccccc1-2,·,-0.93
Cn1c(=O)n(CC(=O)O)c(=O)c2c1nc1n2CCCN1C1CCCCC1,-0.37,-2.3
COc1cccc(C2Sc3ccccc3NC3=C2C(=O)c2ccccc23)c1OC (configuration not stated),1.9,0.43
CSc1nc(NCCOC(=O)C(C)(C)C)c(C#N)c(-c2ccc(C(C)(C)C)cc2)n1,0.91,-1.5
Cc1cc2c(cc1S(=O)(=O)NC1CCCCC1C)OCCN2C (configuration not stated),-0.25,·
O=C1C2N=NN(Cc3ccc(Cl)cc3)C2C(=O)N1c1ccccc1 (configuration not stated),1.1,1.8
CCOC(=O)c1c(C)[nH]c(C)c1S(=O)(=O)NCC1CCN(Cc2ccco2)CC1,0.28,·
COCCNC(=O)CSc1nc(-c2ccco2)cc(C(F)(F)F)n1,-1,0.18
CCN(C(=O)c1cc2c(s1)-c1ccc(Cl)cc1S(=O)(=O)C2)c1ccccc1,1.6,-0.94
NNC(=O)c1ccccc1-n1cccc1,·,-1.4
O=C(NCc1n[nH]c(=O)c2ccccc12)C(=O)N1CCCC1,1.5,·
CCOc1ccc(C2/C(=C(\O)c3ccc(C)cc3)C(=O)C(=O)N2CCCOC)cc1 (configuration not stated),-0.83,-1
Cc1cccc(C2CCCN2C(=O)c2nc3nc(C)cc(C(F)F)n3n2)c1 (configuration not stated),0.96,1.1
CC(=O)OCCNc1cc(N2CCOCC2)c2noc3c2c1C(=O)c1ccccc1-3,-1.6,-1.9
CNS(=O)(=O)c1cn(CC(=O)N2CCCCC2)cc1S(=O)(=O)NC,0.31,·
Cc1cccc(-c2nc(SCc3cc(=O)n4cc(C)sc4n3)n[nH]2)c1,0.69,·
c1ccc(CSc2nc3ccccc3[nH]2)cc1,1.1,-0.93
CCCc1cc(C(=O)NC(C)CC)no1 (configuration not stated),1.6,-1.9
Cc1ccc(N2CCN(S(=O)(=O)c3ccc4[nH]cc(C(=O)O)c(=O)c4c3)CC2C)cc1 (configuration not stated),0.99,·
COc1ccc(-c2nc(SCCOc3ccccc3)n3[nH]c(=O)cc3n2)cc1,2.1,·
COc1ccc(-c2noc(COc3ccccc3OC)n2)cc1,·,-2.9
O=C(Cn1nc2c(cc1=O)CCCC2)Nc1ccccc1Br,1.2,·
CCOCCCN(C1CCN(C)CC1)S(=O)(=O)c1ccc2c(c1)CCCC(=O)N2,0.42,·
COc1ccccc1NC(=O)Nc1nc2c(s1)CCCCC2,2.2,·
COc1ccc(OC)c(CNc2nc(NCCN3CCOCC3)nc3c2cnn3C)c1,0.96,·
Cc1ccnc2nc(NC(=O)C(C)C)nn12,2.2,-1.3
CC1=C(c2ccc(C(C)C)cc2)S(=O)(=O)N(CC(=O)N2CCN(C(=O)c3ccco3)CC2)C1=O,0.48,·
CCN(CC)CCCn1c(C)c(C)c2c1ncn1nc(-c3ccccc3)nc21,-0.6,-1.9
O=C(COCc1cc(-c2cccs2)on1)NCCCN1CCCC1,-1,·
O=C1CC(c2c(F)cccc2Cl)c2cc3c(cc2N1)OCCO3 (configuration not stated),·,-0.46
O=C(COC(=O)c1ccccc1-c1ccccc1)c1ccccc1,1,0.71
Cc1noc2ncnc(N3CCN(c4ccc(Cl)cc4)CC3)c12,0.48,·
CCC(=O)N1CCc2cc(Br)cc(S(=O)(=O)CCC(=O)N3CC(C)CC(C)C3)c21 (configuration not stated),1.4,0.47
CSCc1c(C)nn(C(=O)N(C)C)c1C,·,-1.6
Cc1csc2nc(-c3ccc(Br)cc3)cn12,1,-0.88
Cc1nc2ccc(S(=O)(=O)NC(C(=O)NC3CCCC3)C(C)C)cc2s1 (configuration not stated),·,-1.2
Cc1nn(-c2ccccc2)c(-n2cccc2)c1CNC(=O)Nc1ccccc1F,-1.5,·
CCN1CCN(c2nc(N3CCN(C4CCCCC4)CC3)nc3c2cnn3C)CC1,1.4,·
CCSc1ncc2c(=O)n(CC(=O)N3CCC(C)CC3)cnc2n1,3.1,·
CC1CCC(NS(=O)(=O)c2ccc3c(c2)NC(=O)C(C)S3)CC1 (configuration not stated),5.3,·
COc1cccc(NC(N)=O)c1,·,-1
O=C(CCn1c(=O)sc2ccccc21)Nc1nccs1,·,-1.7
CCCN1C(=O)c2[nH]nc(-c3cc(C)ccc3O)c2C1c1ccc(F)cc1 (configuration not stated),0.65,2
